NPR1 antag: Natriuretic polypeptide receptor (hNpr1) antagonism - Primary qHTS; Atrial natriuretic peptide receptor 1 (Homo sapiens), P16066; HEK293 hNpr1 GloSensor cGMP, ANP-stimulated luminescence; Potency, µM (top dose mostly 46.3 µM), for the others: top-dose activity change, negative = inhibition, actives largely listed as inhibitors; actives 1.6% (n = 76,000); AID 1347048, 2019; active = well fitted inhibition curve with a large enough effect; inconclusive = small, poorly fitted or top-dose-only effect; inactive = no such curve, though single readings can be large or run the other way;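 further: nearly all actives have a fitted effect of over 60% in size; nearly all hits also lower the signal before the agonist is added; a reference antagonist and vehicle were the controls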
Target sequence (P16066 whole entry, looked up): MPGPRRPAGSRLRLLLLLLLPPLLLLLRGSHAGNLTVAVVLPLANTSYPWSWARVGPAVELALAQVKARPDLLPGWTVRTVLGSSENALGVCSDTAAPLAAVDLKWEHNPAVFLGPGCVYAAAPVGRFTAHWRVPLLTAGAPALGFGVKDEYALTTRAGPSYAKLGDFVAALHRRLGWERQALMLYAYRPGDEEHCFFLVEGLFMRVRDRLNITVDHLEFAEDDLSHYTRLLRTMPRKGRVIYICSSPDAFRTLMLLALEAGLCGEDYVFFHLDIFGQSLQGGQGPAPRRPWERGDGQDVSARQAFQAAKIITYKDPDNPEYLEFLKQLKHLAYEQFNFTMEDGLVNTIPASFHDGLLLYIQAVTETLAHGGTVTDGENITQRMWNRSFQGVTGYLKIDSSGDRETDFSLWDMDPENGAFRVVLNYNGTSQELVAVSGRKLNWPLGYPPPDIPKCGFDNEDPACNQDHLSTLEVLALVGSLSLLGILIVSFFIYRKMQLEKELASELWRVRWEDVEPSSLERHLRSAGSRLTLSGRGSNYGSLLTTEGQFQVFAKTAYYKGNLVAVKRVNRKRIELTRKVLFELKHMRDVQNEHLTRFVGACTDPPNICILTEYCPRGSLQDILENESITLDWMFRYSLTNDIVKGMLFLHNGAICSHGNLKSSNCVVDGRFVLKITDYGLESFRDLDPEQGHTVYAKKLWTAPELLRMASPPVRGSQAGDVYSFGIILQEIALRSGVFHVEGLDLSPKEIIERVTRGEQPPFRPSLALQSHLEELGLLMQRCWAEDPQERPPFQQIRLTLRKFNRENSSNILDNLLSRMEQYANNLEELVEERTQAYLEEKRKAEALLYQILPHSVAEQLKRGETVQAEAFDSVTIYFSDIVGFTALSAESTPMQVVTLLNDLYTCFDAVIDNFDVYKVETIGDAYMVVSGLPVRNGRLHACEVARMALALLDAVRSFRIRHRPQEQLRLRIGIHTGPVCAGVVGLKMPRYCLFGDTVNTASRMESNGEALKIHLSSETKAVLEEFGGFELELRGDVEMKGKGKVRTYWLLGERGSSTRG
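HEK293 cells stably expressing human Npr1 and cGMP GloSensor pGS-40F, loaded 2 h with 2% GloSensor reagent, given compound 30 min at room temperature. Luminescence read before and 20 min after 0.1 nM hNppA.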
Numbers without * were called inactive; ? = inconclusive; [ ] = remark or other dose. On the % scale 0 is the no-effect control and ±100 the full control effect; potency means the concentration at half of the fitted maximal effect. Only part of the results is shown; count on the stated rates, not on these rows.

Molecule | NPR1 antag
O=C(c1ccc(N2CC3CC(C2)[C@H]2CCCC(=O)N2C3)nc1)N1CCN(c2cccc(Cl)c2)CC1 (stereo partly drawn) | 1%
COc1ccccc1CN1Cc2cc(NC(=O)c3ccc(Cl)cc3)ccc2OC(C)C1=O (stereo not drawn) | -4%
CCOc1ccccc1CN1CCC([C@@H]2CNC[C@H]2CO)CC1 | 3%
CCCN1CCCC2(CCN(Cc3cnc(N4CCOCC4)s3)C2)C1=O (stereo not drawn) | 8%
CCNC(=O)N1CC[C@@H](CC(=O)O)[C@@H](CC2=NCCc3ccc(C(C)(C)C)cc32)C1 | 1%[70.6 µM]
CCN1C(=O)C(CC(=O)NCc2cccs2)Sc2ncccc21 (stereo not drawn) | -1%
Cc1nc(C2CC(NC3CCN(c4ccccc4F)CC3)C2)cc(=O)[nH]1 (stereo not drawn) | 16%
Cc1ccc(C(=O)N2CCN(c3cc(-c4ccccc4)[nH]n3)CC2)cc1 | ?
CCCN(CC1CCOC1)S(=O)(=O)c1ccc2c(c1)CCCC2 (stereo not drawn) | -8%
O=C(CCC1CCCC1)N1CCC2(CCCCO2)CC1 | -14%
Fc1ccc(CN2CCOC[C@H]2c2ncc(-c3cccnc3)[nH]2)cc1 | 0%[70.6 µM]
CCC(=O)N1CCC2(CC1)OCC(C(=O)NCc1ccccc1)N2C(=O)c1ccc(C)cc1 (stereo not drawn) | 8%
Cc1ccc(S(=O)(=O)CCNC(=O)c2cc3n(n2)CCCNC3)cc1 | 2%
O=C(COc1ccc(F)cc1)N1CC(Oc2cccc(-c3nc(-c4ccccc4)no3)c2)C1 | -17%
CN1CC2(CCN(Cc3ccccc3C#N)CC2)CC1C(=O)N1CCOCC1 (stereo not drawn) | 2%
CCCc1ccc(CN2CCCC(O)(CN(C)C)C2)o1 (stereo not drawn) | 5%
CC(C)CN1CCN(C(=O)C2CCCN(S(=O)(=O)c3cn(C)cn3)CCC(=O)NCC2)CC1 (stereo not drawn) | -7%
CN1C[C@@H](NC(=O)c2ccc(C#N)cc2)C[C@H]1c1nc(-c2cncnc2)no1 | 2%[70.6 µM]
CCc1nc(C)c(C(=O)N2CCC3(CCCN(Cc4cccc(C)c4)C3)C2)o1 (stereo not drawn) | -9%
COc1ccc(-c2cc(CC3(NC4CCCCC4)COC3)no2)cc1 | 0%[70.6 µM]
COc1ccc2[nH]c(=O)c(CCC(=O)NCCN3CCCCCC3)cc2c1 | -5%
O=C1CC(c2ccccc2)N(S(=O)(=O)c2ccc3c(c2)CCC3)CCCCCN1 (stereo not drawn) | -9%
CCCN(C)c1nccnc1OC1CCN(C(=O)Cc2ccccc2OC)C1 (stereo not drawn) | -11%
CCC(=O)N1CCC2(CC1)CN(c1ccccc1)C2=O | 1%
O=C(N[C@@H]1CN(c2ccncn2)C[C@H]1CO)C1CCCC1 | 9%
CN1C[C@H](NCc2cnn(C)c2)CCC[C@@H](C(=O)NC2CC2)CC1=O | -1%[70.6 µM]
CC(C)CN1C(=O)c2ccccc2C(C(=O)Nc2nncs2)C12CCCC2 (stereo not drawn) | -2%
Cc1c(-c2ccccc2F)[nH]c2ccc(CNC(=O)Cn3ccc(=O)[nH]c3=O)cc12 | -7%
O=C(C[C@@H]1CCNC[C@@H]1Cc1cc(-c2ccccc2)on1)NCc1ccc(F)cc1 | -10%[70.6 µM]
O=C(Cn1c(=O)oc2ccccc21)N1CCc2nn(CC3CC3)c(=O)n2CC1 | 0%
Cc1noc(-c2cn(C3CCN(C(=O)c4ccc(Cl)s4)C3)nn2)n1 (stereo not drawn) | 0%
CCN(CC)Cc1cnc2c(C(=O)N3[C@H]4CCNC[C@@H]3CC4)cnn2c1 | 2%
CN1CCC(OC2CCN(C(=O)c3ccc(Cl)cc3)CC2)CC1 | 7%
O=C(Nc1cnc(-c2ccccc2)nc1)c1ccccc1C(F)(F)F | -16%
CCc1noc(-c2cn(C3CCN(C(=O)c4ccsc4)CC3)nn2)n1 | -2%
O=C1CSc2ccccc2N1CC(=O)N1CCCCC1c1nccs1 (stereo not drawn) | 0%
Cc1noc(C)c1CC(=O)N1CC(c2noc(C3CCCN3C)n2)C1 (stereo not drawn) | 5%
O=C(c1cn(CCCc2ccccc2)nn1)N1CCC(OCc2cccnc2)CC1 | -19%
COc1ccc(-c2nccc3c(=O)cc(N4CCN(C)CC4)oc23)cc1OC | 0%[70.6 µM]
c1ccc(CNc2nc(-c3ccccc3)no2)cc1 | ?
CCn1cc(CN2CCN(C(=O)c3cccs3)CC2)ccc1=O | -14%
Cc1nn2c(c1-c1ccnn1C(C)C)N(CC1CCOCC1)CCC2 | ?
O=C1[C@H]2CN(Cc3ccc(Cl)cc3)C[C@H]2C(=O)N1CCc1ccccc1 | -9%
Cc1ccc(C2NC(=O)N(CC(=O)Nc3ccc(F)c(F)c3)C3=C2C(=O)OC3)cc1 (stereo not drawn) | -13%
Cc1ccc(-c2cn3c(n2)CO[C@@H](CNS(C)(=O)=O)C3)cc1 | 4%[70.6 µM]
COCCNC(=O)CCCN1C(=O)COc2ccc(C(=O)COc3ccc(C)cc3Cl)cc21 | -13%
CCC1=NS(=O)(=O)c2cc(NC(=O)C3CC3)ccc2N1CC(C)C | 2%
COc1cccc(-c2cc(-c3ccc(OC)nc3)c3cncn3c2)c1 | -19%[70.6 µM]
Cc1nccn1CCCC(=O)N1CCC2(CCC(=O)N(CC3CCCO3)C2)CC1 (stereo not drawn) | 0%
COC1C(=O)N(c2cccc(F)c2)C12CCN(C(=O)c1ccncc1)CC2 (stereo not drawn) | -6%

Some of these compounds in order of their number in NPR1 antag, highest first:
Molecule | NPR1 antag
Cc1noc(C)c1CC(=O)N1CC(c2noc(C3CCCN3C)n2)C1 (stereo not drawn) | 5%
CCC1=NS(=O)(=O)c2cc(NC(=O)C3CC3)ccc2N1CC(C)C | 2%
O=C1CSc2ccccc2N1CC(=O)N1CCCCC1c1nccs1 (stereo not drawn) | 0%
CCc1noc(-c2cn(C3CCN(C(=O)c4ccsc4)CC3)nn2)n1 | -2%
Cc1ccc(C2NC(=O)N(CC(=O)Nc3ccc(F)c(F)c3)C3=C2C(=O)OC3)cc1 (stereo not drawn) | -13%

Back to the main list; the two compounds before the break are reprinted first.
Molecule | NPR1 antag
Cc1nccn1CCCC(=O)N1CCC2(CCC(=O)N(CC3CCCO3)C2)CC1 (stereo not drawn) | 0%
COC1C(=O)N(c2cccc(F)c2)C12CCN(C(=O)c1ccncc1)CC2 (stereo not drawn) | -6%
CC(=O)Nc1cccc(C(=O)N2CCC(n3cc(-c4nc(C)no4)nn3)CC2)c1 | 4%
COCc1nncn1C1CCN(S(=O)(=O)c2ccc(OC)c(Cl)c2)CC1 | -1%
O=C1OC[C@@H]2CCN(CC3CC3)Cc3ccc(F)cc3N12 | -24%[70.6 µM]
CN1C(=O)CCC2(CNC(=O)c3cccnc3)CCCC=C12 (stereo not drawn) | -3%
COC(=O)c1ccccc1S(=O)(=O)N1CCC(c2cc(-c3cccc(C)c3)n[nH]2)CC1 | 1%
COc1ccc2[nH]cc(CCNC(=O)C3CCCN(S(C)(=O)=O)CCC(=O)NCC3)c2c1 (stereo not drawn) | 4%
COCCCN1C(=O)CC[C@H]2CN(Cc3cc(CC(C)C)n[nH]3)CC[C@H]21 | 2%
CCN(Cc1ccccc1)C(=O)Cn1c(C)ccc(NS(=O)(=O)c2ccccc2)c1=O | 1%
CN(C(=O)Cc1c[nH]c2ncc(-c3cnn(C)c3)cc12)c1ccccc1 | -2%[70.6 µM]
COCCOC1CCN(C(=O)Nc2ccc3c(c2)OCCO3)CC1 | 6%
Cc1cccc(N(C)C(=O)Cn2c(=O)n(-c3ccccc3)c(=O)c3c2cc(C)n3C)c1 | 1%
CC(C)CCNC(=O)CCc1nnc(-c2ccc(OC(C)C)cc2)[nH]c1=O | -1%
Cc1noc(C)c1-c1cc2cc(CN(C)C)oc2c(N2CCOCC2)n1 | -4%[70.6 µM]
COC(=O)[C@@H]1Cc2c([nH]c3ccccc23)[C@H]2C[C@@H](NCCNC(C)=O)C[C@@H](c3ccc(-c4ccccc4)cc3)N21 | 1%
CC(C)(O)C#Cc1ccc(CN2CC[C@@H](c3ccc(F)cc3)[C@H](O)C2)s1 | -4%
CN(C)S(=O)(=O)NCC(=O)N1CCCCCNC(=O)CC1c1ccccc1 (stereo not drawn) | 2%
Cc1cnc(C(=O)N2CC(c3nnc(-c4ccncc4)o3)C3(CCOCC3)C2)cn1 (stereo not drawn) | -2%
O=C(c1cccs1)C1CCCN(C(=O)COc2ccc(F)cc2F)C1 (stereo not drawn) | -15%
CC(C)N1CCC[C@H]1c1nc(-c2ccc(N3CCN(C)CC3)nc2)no1 | 5%[70.6 µM]
Cc1nc(-c2c3n(c(=O)n(Cc4ccc(F)cc4)c2=O)CCCC3)no1 | 0%
O=C(c1cc(F)ccc1Cl)N1CCC(Cc2nc(-c3ccc(F)cc3)no2)CC1 | 7.1µM*
O=C1[C@H]2CN(Cc3ccccc3F)C[C@H]2C(=O)N1CCc1ccccc1 | -15%
CCN(CC)Cc1nc(C2(O)CCN(C3CCCC3)CC2)cs1 | 5%[70.6 µM]
O=C1Nc2ccccc2CC12CCN2Cc1ccccc1 (stereo not drawn) | -3%[70.6 µM]
Nc1nc(C2CC(NC(=O)c3[nH]nc(N)c3-c3ccccc3)C2)cc(=O)[nH]1 (stereo not drawn) | -3%
O=[S+]1([O-])NC2(CCCN(Cc3ccsc3)C2)CNc2ccccc21 (stereo not drawn) | 0%
Cc1cc(=O)n(CC(=O)Nc2ccc(F)cc2F)c(-c2ccc(F)cc2)n1 | -1%
COc1ccc(CNC(=O)CN2C(=O)NC(c3ccccc3Cl)C3=C2COC3=O)cc1 (stereo not drawn) | -1%
COc1ccc(NC(=O)Cn2c(N3CCCCC3)nc(C)c(C)c2=O)cc1Cl | -11%
c1ccc(-c2nnc([C@H]3CCN(C4CCOCC4)C3)o2)cc1 | 4%[70.6 µM]
Cn1nc(C(=O)N2CC(C)(C)C(C)(O)C2)cc1-c1cccs1 (stereo not drawn) | 1%
Cc1ccccc1NC(=O)Cn1ccn2nc3c(c2c1=O)CCCCC3 | -12%
COc1ccc(N2C(=O)C3(CCCCC3)C2C(=O)N2CCN(CC(C)C)CC2)cc1 (stereo not drawn) | 7%
O=C(c1cccc(CC2CCNCC2)c1)N1CCOCC(O)C1 (stereo not drawn) | 3%
NC(=O)CNC(=O)C1=C[C@@H](NC(=O)Cc2cccs2)[C@@H](O)[C@H](O)C1 | -15%[70.6 µM]
CNC(=O)N1C[C@@H](CN(C)C)[C@H](NC(=O)C2(c3ccc(OC)cc3)CC2)C1 | 3%
CCCOCCN1CCN(c2nc(CCN)nc3ccccc23)CC1 | -13%
CNC(=O)CCn1ncc2cc(OC3CCc4cccc(-c5ccc(O)c(F)c5)c43)ccc21 (stereo not drawn) | 2%
CNC(=O)c1noc([C@@H]2CC(F)(F)CN2C(=O)c2ccc(C)cc2)n1 | 3%
CC(C)NC(=O)N1Cc2[nH]cnc2C[C@H]1C(=O)NCc1ccco1 | -1%[70.6 µM]
O=C(c1ccn2cncc2c1)N1CCOCC1 | 2%[70.6 µM]
CS(=O)(=O)N1CCCC(C(=O)NCCc2ccccn2)CCNC(=O)CC1 (stereo not drawn) | 9%
COc1ccc(C(=O)N2C[C@H](c3nc(-c4ccncc4)no3)[C@@H](C)C2)cc1OC | -13%
Cc1ccc2[nH]nc(C(=O)N3C[C@@H](C(=O)O)[C@H](c4ccc(F)cc4)C3)c2c1 | 2%
COc1ccc(C2Cn3cnc(C(=O)N4CCC(C(=O)Nc5ccc(F)cc5)CC4)c3CO2)cc1 (stereo not drawn) | -11%
Cc1ccc(NC(=O)N2CCN(C(=O)N3CC4CC(C3)[C@H]3CCCC(=O)N3C4)CC2)cc1C (stereo partly drawn) | 4%
CN(C)Cc1cc(C[C@@H]2CC[C@H](O)[C@@H](CNC(=O)N3CCOCC3)O2)no1 | 4%[70.6 µM]
O=C1CCCCC(C(=O)NCc2ccc3c(c2)OCO3)N1 (stereo not drawn) | 4%
CC(C)Oc1ccc(CN2CCCC(COc3ccccc3C(=O)N3CCCC3)C2)cc1 (stereo not drawn) | -5%
CCc1cc(N2CCCC(OCc3ccccn3)C2)n2nc(C)c(C)c2n1 (stereo not drawn) | -3%

Other results follow.
Molecule | NPR1 antag
COc1ccc(C2Cn3nnc(C(=O)N4CCC(C(=O)NC(C)C)CC4)c3CO2)cc1 (stereo not drawn) | 1%
O=C([C@@H]1C[C@H](F)CN1S(=O)(=O)c1cccc(F)c1)N1CCCCC1 | -1%
O=C(c1ncccc1F)N1C[C@@H](COCC2CC2)[C@H](c2ccccn2)C1 | 3%
CCOc1ccccc1C(=O)N[C@@H]1CN(C)C[C@H]1CN(C)C | 4%
COc1ccc(CCC(=O)N2CCC(Cc3nc(-c4cnccn4)no3)CC2)cc1 | -11%
O=C(c1ccccc1-n1cncn1)N1CCC(N2CCCC2=O)CC1 | 4%
CN(C(=O)Cc1ccc(S(C)(=O)=O)cc1)C1CCc2nn(C)c(=O)n2CC1 (stereo not drawn) | 3%
O=C(N[C@@H]1CCC[C@@H]1C(=O)N1CCN(c2ncccn2)CC1)c1ccncc1 | -7%
CCCc1noc(-c2cccn3c(CNC(=O)c4cc(C)ccc4C)nnc23)n1 | -2%
